Screening results: PubChem, several laboratories
INS promoter inh – inhibitors of insulin promoter-driven GFP, primary screen, imaging, TRM-6 cells (human fetal islet line), eGFP reporter, cell count; reporter expression induced with tamoxifen; inhibition, % at 2 µM; 130,000 tested, 0.9% active; AID 1273, 2008;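 active = inhibition above the mean plus 3 SD, with well images judged a real hit on visual review, cut at about 60% in these data, passing the limit was not always enough; inconclusive = inhibition over the cutoff but images rejected on review; inactive = inhibition not above the cutoff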
RGS16-Gao HTS – modulators of RGS16 binding to Galphao, primary screen, biochemical, human proteins, multiplexed bead flow cytometry. binding response (% of control), % at 10 µM. bead-based flow cytometry RGS16-Galphao binding, fluorescence; actives lie on both sides. Regulator of G-protein signaling 16 (Homo sapiens) + Guanine nucleotide-binding protein …. 220,000 tested, 0.38% active;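 active = below 25% or above 175%, edge rows of some plates excepted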;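 note: Galphao activated by GDP with aluminum fluoride before binding; 100% = wells without compound and 0% = beads without RGS; some results beyond the cut were filed as inactive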
Target sequence (O15492 whole entry, looked up): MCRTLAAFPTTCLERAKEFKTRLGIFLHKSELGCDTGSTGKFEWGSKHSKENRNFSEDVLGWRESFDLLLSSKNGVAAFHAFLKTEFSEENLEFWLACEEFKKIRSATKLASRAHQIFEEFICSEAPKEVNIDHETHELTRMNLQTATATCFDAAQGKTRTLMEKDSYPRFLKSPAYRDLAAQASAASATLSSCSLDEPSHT
Target sequence (P09471 whole entry, looked up): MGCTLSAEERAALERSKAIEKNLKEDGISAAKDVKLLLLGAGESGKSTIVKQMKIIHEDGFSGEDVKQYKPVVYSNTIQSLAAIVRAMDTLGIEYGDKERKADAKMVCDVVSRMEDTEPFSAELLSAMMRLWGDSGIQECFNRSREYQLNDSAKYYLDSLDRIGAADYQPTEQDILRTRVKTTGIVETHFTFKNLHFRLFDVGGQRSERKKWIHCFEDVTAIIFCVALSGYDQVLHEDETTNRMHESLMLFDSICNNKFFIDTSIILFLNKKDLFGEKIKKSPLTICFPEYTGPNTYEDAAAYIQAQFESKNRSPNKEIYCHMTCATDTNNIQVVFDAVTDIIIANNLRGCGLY
GALR2 ag – GALR2 receptor agonists, primary screen, cell-based; AID 803, 2007; Galanin receptor type 2 (Homo sapiens), O43603; activation, %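 (tested at 5 µM)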; 140,000 tested, 0.48% active; GALR2-expressing cells, agonist activation read-out;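 active = above mean plus 3 SD of all compounds, about 5% in these data, not always enough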;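 note: 0% = vehicle buffer wells and 100% = reference agonist at full effect; tested in CHO reporter cells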
Target sequence (O43603 whole entry, looked up): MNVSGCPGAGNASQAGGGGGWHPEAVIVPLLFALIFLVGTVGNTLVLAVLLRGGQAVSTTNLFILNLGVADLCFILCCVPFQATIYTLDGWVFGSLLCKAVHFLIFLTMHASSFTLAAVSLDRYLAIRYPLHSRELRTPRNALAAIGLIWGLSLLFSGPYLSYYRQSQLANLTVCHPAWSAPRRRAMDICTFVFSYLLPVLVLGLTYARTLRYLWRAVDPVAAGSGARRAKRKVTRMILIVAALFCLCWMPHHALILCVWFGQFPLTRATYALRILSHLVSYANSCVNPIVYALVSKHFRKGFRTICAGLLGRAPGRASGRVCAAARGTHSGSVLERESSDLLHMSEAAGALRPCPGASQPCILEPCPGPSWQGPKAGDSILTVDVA
HSV augment – enhancers of HSV replication in host cells, fold increase, host cell viability | HSV replication augmentation in cells | maximum fold increase | 220,000 tested, 0.005% active | AID 1956, 2009;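 active = peak rise of 1.5-fold or more in the series; inconclusive = self-fluorescent or not available for retest; tested in PC3 cells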;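 note: first round at 10 µM; read as green reporter fluorescence; hits show the peak of a series up to 25 µM; 1 = signal of infected wells without compound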
PKD1 kinase inh – inhibitors of human PKD1 kinase, biochemical, fluorescence polarization; Serine/threonine-protein kinase D1 (Homo sapiens), Q15139; PKD1 kinase fluorescence polarization assay; inhibition, %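 (about 10 µM by stock and volumes)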; 200,000 tested, 0.056% active;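 active = inhibition of 50% or more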;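 note: controls were vehicle for no effect and a reference inhibitor for full effect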
INS promoter inh cell count – second read-out of INS promoter inh, no call of its own (marks repeat the call); normalized cell count, %; measured here: cell count, toxicity; reference of the scale not given here;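 cells exposed to compound for 48 h; stained nuclei by imaging scaled within each plate; lower means fewer cells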
HSV augment primary fold – also measured in HSV augment; calls as there; fold increase; compound at 10 µM; measured here: primary screen fold increase 10 uM; tested in PC3 cells;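 GFP signal in the first replicate; 1 = infected wells without compound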
Numbers without * were called inactive; i = inactive; ? = inconclusive; nt = no result given. Compounds as they come (roughly 1.3% active in at least one column).

SMILES	INS promoter inh	INS promoter inh cell count	RGS16-Gao HTS	GALR2 ag	HSV augment	HSV augment primary fold	PKD1 kinase inh
CCCCCC(=O)Nc1cccc(C2=NOC3(C2)C[C@H](C(N)=O)N(C(=O)CCCCC)C3)c1 (some centres not stated)	nt	nt	100	nt	i	0.89	nt
COc1ccc(N2C(=O)C3CCCN3C2c2cccc(C)c2)cc1 (configuration not stated)	nt	nt	109	-1.9	i	1.1	-16
COc1ccc(C2C(C(=O)Nc3cccnc3)=C(C)Nc3nc(-c4cccs4)nn32)cc1 (configuration not stated)	25	132	100	-1.0	i	0.83	3
COc1cccc(C(=O)N2CCCC(CCC(=O)NCc3ccc(F)c(F)c3)C2)c1 (configuration not stated)	nt	nt	103	nt	i	0.97	0
COC(=O)CN=Cc1c(C)[nH]n(-c2ccccc2)c1=O	-18	111	106	nt	i	1	0
CCc1ccc(NC(=O)CCS(=O)(=O)c2cccc3nsnc23)cc1	3	18	101	-5.6	i	1.1	8
COc1ccc(-c2ccc(Nc3ccc(S(=O)(=O)N4CCCC4)cc3)nn2)cc1OC	-34	137	100	0.2	i	0.8	-11
Cc1ccc(NS(=O)(=O)c2ccc(N/N=C/c3ccccc3OCC(=O)O)c([N+](=O)[O-])c2)c(C)c1	nt	nt	103	nt	i	0.88	nt
CC(NC(=S)NCc1ccccc1)C12CC3CC(CC(C3)C1)C2 (configuration not stated)	nt	nt	96	nt	i	0.83	-10
Cc1ccc(O/C=C2\OC(=O)c3ccccc32)cc1	81*	93*	59	-0.7	i	1.1	-8
COCCNC(=O)CN(c1cc(Cl)ccc1OC)S(C)(=O)=O	36	141	92	0.8	i	1.2	1
C/C(CC(=O)Nc1cc(C)ccn1)=N\NC(=O)COc1cccc(C)c1	-29	94	101	-1.6	i	0.82	-3
C=CCOC(=O)C1=C[C@H](c2csc3ccccc23)[C@@H](CCCO)[C@H](OCC)O1	nt	nt	97	nt	i	0.96	-7
CCN(CC)S(=O)(=O)c1ccc(C(=O)NCc2ccc3[nH]c4c(c3c2)CCCC4)cc1	-17	77	105	-0.9	i	0.89	-14
COc1ccc(C=Nc2ccc3[nH]ncc3c2)c(O)c1	nt	nt	92	nt	i	1.1	-4
CCC(C)NC(=O)C1c2ccccc2C(=O)N1Cc1ccccc1OC (configuration not stated)	-16	81	91	-1.0	i	1	1
COc1cc(/C=C2\SC(=S)N(NC(=O)c3cccnc3)C2=O)ccc1O	nt	nt	101	nt	?	nt	nt
Cc1ccc(OCc2nnc(SCC(=O)c3ccccc3)n2Cc2ccco2)cc1	-93	102	100	0.7	i	0.93	-7
O=[N+]([O-])c1cccc(/C=N/NS(=O)(=O)c2ccccc2)c1	nt	nt	104	nt	i	1.3	-2
CCn1cc(/C=N/N=C2\CCC3C4CCc5cc(O)ccc5C4CC[C@]23C)c(C)n1 (some centres not stated)	-42	100	111	-1.1	i	0.83	2

Continued; the last four above are carried over.
SMILES	INS promoter inh	INS promoter inh cell count	RGS16-Gao HTS	GALR2 ag	HSV augment	HSV augment primary fold	PKD1 kinase inh
COc1cc(/C=C2\SC(=S)N(NC(=O)c3cccnc3)C2=O)ccc1O	nt	nt	101	nt	?	nt	nt
Cc1ccc(OCc2nnc(SCC(=O)c3ccccc3)n2Cc2ccco2)cc1	-93	102	100	0.7	i	0.93	-7
O=[N+]([O-])c1cccc(/C=N/NS(=O)(=O)c2ccccc2)c1	nt	nt	104	nt	i	1.3	-2
CCn1cc(/C=N/N=C2\CCC3C4CCc5cc(O)ccc5C4CC[C@]23C)c(C)n1 (some centres not stated)	-42	100	111	-1.1	i	0.83	2
CO[C@@]1(NC(=O)CSCC#N)C(=O)N2C(C(=O)O)=C(CSc3nnnn3C)CS[C@@H]21	18	106	102	-0.3	i	0.85	-12
Cc1nc(-c2ccc(C(=O)N3CCCC3)cc2)cs1	-45	98	104	nt	i	1.1	2
CC(C)(C)c1ccc(-c2nnc(SCC(=O)c3ccc4c(c3)OCCO4)o2)cc1	-33	62	96	0.3	nt	nt	4
CN(C)c1nc(SCC#N)nc(N(C)C)n1	29	23	106	0.6	i	0.9	-10
CCC(CC)C(=O)Nc1ccc(Nc2ccccc2)cc1	18	130	109	-1.0	i	0.82	5
CC(C)c1nc(CN(C)C(=O)N[C@H](C(=O)N[C@@H](Cc2ccccc2)C[C@H](O)[C@H](Cc2ccccc2)NC(=O)OCc2cncs2)C(C)C)cs1	nt	nt	101	nt	i	0.77	nt
Cc1cc(C(=O)CSc2nc3ccccc3[nH]2)c(C)n1Cc1ccco1	-24	130	97	0.3	i	0.96	-6
COc1ccc(C(CC(=O)O)NC(=O)c2ccccc2)cc1OC (configuration not stated)	-7	123	106	-1.9	i	0.9	-5
COc1cccc(N2C(=O)Nc3ccccc3C2(O)C(=O)NCc2ccc3c(c2)OCO3)c1 (configuration not stated)	-6	118	107	-0.6	i	1.1	7
CC(C)N1CCC(N2CCN(C3CCCCCC3)CC2CCO)CC1 (configuration not stated)	nt	nt	119	nt	i	0.99	-7
CCCN1C2CCCC1CC(NC(=O)C1CCCCC1)C2 (configuration not stated)	-52	130	104	-0.2	i	1	0
CCCc1cc(=O)[nH]c(Nc2ccc(OC)c(Cl)c2)n1	-7	113	104	0.3	i	1.1	-10
COc1ccc(C2=C(CC(=O)O)C(=O)CC2)cc1	nt	nt	139	-0.2	i	1.1	7
O=C(O)CCn1c(=S)n(CCC(=O)O)c2ccccc21	nt	nt	99	nt	i	0.93	nt
CC(=O)c1ccc2c(c1)C1C=CCC1C(c1ccc(S(=O)(=O)N3CCOCC3)cc1)N2 (configuration not stated)	nt	nt	86	-2.4	i	1.4	2
O=C(CCC(=O)N(c1ccc(F)cc1)C(C(=O)NC1CCCC1)c1ccncc1)Nc1cccnc1 (configuration not stated)	-343	53	109	-3.0	i	0.91	-6
CC1CN(C(=O)c2ccc(C(=O)c3ccccc3)cc2)CC(C)O1 (configuration not stated)	nt	nt	107	-0.4	i	1.1	-7
CCOC(=O)c1sc2nc(CC(=O)OC)nc(N3CCN(c4ccc(OC)cc4)CC3)c2c1C	17	186	93	0.6	i	0.88	-5
CCOC(=O)c1c(C)c(C(=O)Nc2ccc(F)cc2)c(C)n1C	-142	112	104	nt	i	0.87	-6
CC(C(=O)NC(=O)NC1CCCCC1)N1CCN(C(c2ccccc2)c2ccccc2)CC1 (configuration not stated)	3	58	108	-1.4	nt	nt	-6
COc1cccc(-n2cc(CN(C)Cc3nc(Cc4ccccc4)no3)cn2)c1	nt	nt	97	nt	i	0.86	0
CO/N=C(\Cn1ncc(NC2CCCCC2)c(Br)c1=O)c1ccc(Cl)cc1	-61	103	102	0.1	i	0.89	-6
CCCn1c(CN2CCCCC2CC)nc2c1c(=O)n(C)c(=O)n2C (configuration not stated)	i	49	98	-1.8	i	1	-3
O=C(OCC(=O)N1CCN(C(=O)c2ccco2)CC1)c1cc(-c2ccc(Cl)c(Cl)c2Cl)nc2ccccc12	-22	65	71	-2.5	i	0.94	-7
CCN(CCCNC(=O)c1c(C)cc(=O)oc1C)c1ccccc1	-82	76	100	0.5	i	0.87	5
CCOC(=O)c1ccc(NC(=O)c2nc[nH]c2C(=O)N[C@@H](CC(C)C)C(=O)OC(C)(C)C)cc1	nt	nt	87	nt	i	0.83	nt
Cc1cc(C)n(Cc2ccc(NC(=O)c3c([N+](=O)[O-])c(C)nn3C)cc2)n1	26	117	100	-2.1	i	1	-10
CSC1=N/C(=C\c2ccccc2)C(=O)N1C	-2	90	93	-1.6	i	0.94	-4
CCOC(=O)C1=C(CSc2nc(-c3ccccc3)ccc2C#N)OC(N)=C(C#N)C1c1cccnc1 (configuration not stated)	-89	72	110	-1.1	?	nt	-3
CC(=O)N1CCN(C2=NC(=O)/C(=C\c3cccs3)S2)CC1	nt	nt	96	nt	i	0.94	-10
COc1ccc(NC(=O)CN2CCN(CC(=O)Nc3cc(OC)cc(OC)c3)CC2)cc1	nt	nt	97	nt	i	0.91	nt
COCCN1Cc2cccc(C(=O)Nc3ccc(C)c(C)c3)c2C1=O	nt	nt	94	0.1	i	1	-16
Nc1nc2n(n1)C(c1ccccc1Cl)CC(c1ccc(F)cc1)N2 (configuration not stated)	nt	nt	95	-0.5	i	1.1	2
Cc1cc(=O)n2nc(N3CCCC(C(=O)NCc4ccco4)C3)sc2n1 (configuration not stated)	0	120	109	-3.0	i	0.97	-13
CN(c1ccc(C(=O)NCCC2=CCCCC2)cc1)S(C)(=O)=O	33	113	105	-0.1	i	0.92	-3
NC1=NS(=O)(=O)NC1c1cccc(F)c1 (configuration not stated)	40	115	103	nt	i	1	-11
COc1ccc(-c2ccc(-c3nnn(CC(C)=O)n3)cc2)cc1	-35	195	101	-1.8	i	0.84	-11
COc1ccc(NC2c3ccccc3C(=O)N2c2cccnc2)cc1Cl (configuration not stated)	nt	nt	77	0.0	i	1	-1
Cc1ccc(NC(=O)CN2CCC(C(N)=O)CC2)cc1[N+](=O)[O-]	nt	nt	100	nt	i	1.1	6
O=S(=O)(c1cccc(-c2nn3c(-c4ccncc4)nnc3s2)c1)N1CCOCC1	-73	119	101	-0.9	i	0.95	6
CCOC(=O)c1ccc(NS(=O)(=O)c2ccc(SC)cc2)cc1	-38	98	101	-2.7	i	0.89	8
COc1ccc(/C=N/OCC(=O)N2CC3(C)CC2CC(C)(C)C3)cc1 (configuration not stated)	-13	98	103	-1.0	i	0.93	-4
O=C(NCc1ccc2c(c1)OCO2)c1nn2cccnc2c1Cl	i	75	107	-0.8	i	0.93	0
COc1cccc(-n2c(C)nnc2SCC#N)c1	25	126	102	-0.5	i	1	-3
CC(=O)Nc1ccc(S(=O)(=O)NCC2CCC(C(=O)NCCC3=CCCCC3)CC2)cc1 (configuration not stated)	-46	122	107	-2.4	i	0.77	-6
COCCCNC(=O)c1ccc2c(c1)CCN2S(C)(=O)=O	3	85	100	-2.3	i	1.2	-4
CS(=O)(=O)N(Cc1ccccc1)c1ccc(C(=O)Nc2ccc3c(c2)OCO3)cc1	0	140	101	-1.0	i	1	-6
CCCc1cc(C(=O)Cc2ccc(F)cc2)c(O)cc1O	-269	87	103	1.7	i	0.91	-2
CCc1ccc(CNC(=O)C2CCN(S(=O)(=O)N3CCC4(CC3)OCCO4)CC2)cc1	50	120	103	nt	i	0.93	5
C/C(=N\OCC(=O)Nc1ccccc1C(=O)O)c1cccs1	nt	nt	100	nt	i	1.1	2
CCNc1nc(NC(C)C)nc(N(C#N)CCOc2ccc(Cl)cc2Cl)n1	64	131	100	0.5	i	1.1	-1
N=c1sccn1CC(=O)Nc1ccc2c(c1)CCC2	nt	nt	83	-1.8	i	1	3
CCCCOC(=O)c1cc(=O)[nH]c2ccc(C)cc12	nt	nt	95	nt	i	1	-1
CCOC(=O)N1CCC(N2CC34C=CC(O3)C(C(=O)Nc3ccc(OCC)cc3)C4C2=O)CC1 (configuration not stated)	nt	nt	107	-1.2	i	0.97	-10
CCOc1ccc(CC(=O)NNC(=S)Nc2ccc(OC)c(OC)c2)cc1	nt	nt	102	nt	i	1.1	4
CCN(CC)CCCNC(=O)Cn1ccc2ccccc2c1=O	nt	nt	105	nt	i	1.1	6
O=C1C(Nc2ccccc2)=C2CCCC=C2N1c1ccccc1	nt	nt	106	nt	i	1	7
O=C(c1ccccc1)c1ccccc1N/C=C/c1nnnn1-c1ccccc1	-12	75	100	-3.3	i	1	3
O=C1CCC(C(=O)OCc2cc(=O)oc3ccc4ccccc4c23)=NN1	nt	nt	58	nt	i	1	nt
C/C(=N\NC(=O)Cn1cc([N+](=O)[O-])cn1)c1ccc(O)cc1	nt	nt	93	nt	i	0.97	nt
CC(=O)n1cc(C2C(=O)CC(C)(C)CC2=O)c2ccccc21	8	100	108	-1.9	i	0.93	-10
COc1ccc(NCC(=O)Nc2ccc(C#N)cc2)cc1Cl	30	94	89	-1.1	i	0.86	-3
CCOC(=O)C(NC(C)=O)(N1CCOCC1)C(F)(F)F (configuration not stated)	-9	93	104	-1.9	i	1.1	-2

Reformatted in CSV form: 2 of the compounds above
SMILES,INS promoter inh,INS promoter inh cell count,RGS16-Gao HTS,GALR2 ag,HSV augment,HSV augment primary fold,PKD1 kinase inh
CCC(CC)C(=O)Nc1ccc(Nc2ccccc2)cc1,18,130,109,-1.0,i,0.82,5
CC(C)c1nc(CN(C)C(=O)N[C@H](C(=O)N[C@@H](Cc2ccccc2)C[C@H](O)[C@H](Cc2ccccc2)NC(=O)OCc2cncs2)C(C)C)cs1,nt,nt,101,nt,i,0.77,nt
